Screening results: PubChem, National Center for Advancing Translational Sciences (NCATS)
VACV Venus inh: qHTS for Stage-Specific Inhibitors of Vaccinia Orthopoxvirus: Venus Reporter Primary qHTS | Vaccinia virus Venus reporter expression, fluorescence | Potency, µM (doses to about 36.5 µM), for the others: at the top dose activity change, negative = inhibition, usual class: inhibitors | 330,000 compounds, 0.46% hits | AID 720580, 2013; active means well fitted inhibition curve with a large enough effect; inconclusive means small, poorly fitted or top-dose-only effect; inactive means no such curve, though single readings can be large or run the other way; tested in A549 cells; further: nearly all actives have a fitted effect of over 30% in size; inactives centre near -10
VACV mCherry inh: qHTS for Stage-Specific Inhibitors of Vaccinia Orthopoxvirus: mCherry Reporter Primary qHTS; Vaccinia virus mCherry reporter infection, fluorescence; about a quarter of the inactives have no number; Potency, µM (top dose mostly 36.5 µM), for the others: at the top dose activity change, negative = inhibition, most hits filed as inhibitors; 310,000 compounds, 0.63% hits; active = well fitted inhibition curve with a large enough effect; inconclusive = small, poorly fitted or top-dose-only effect; inactive = no such curve, though single readings can be large or run the other way; tested in A549 cells; further: nearly all actives have a fitted effect of over 35% in size; inactives centre near -10
* marks the source's active call; other numbers are inactive results; i = inactive; u = inconclusive; x = no result given; & = joins results of further samples; [ ] = another dose, or the depositor's remark. On the % scale 0 is the no-effect control and ±100 the full control effect; potency means the concentration at half of the fitted maximal effect.

SMILES	VACV Venus inh	VACV mCherry inh
COc1ccc(CN2CC(C(=O)NCCCN3CCCCCC3)CC2=O)cc1 (stereo not drawn)	-1%	x
COc1cccc(/C=C/C(=O)OCC(=O)N2CCN(S(=O)(=O)c3ccc(Cl)cc3)CC2)c1	-3%	0%
CCn1c(N)c(C(N)=O)sc1=S	-7%	x
S=C(NCc1ccc(Cl)cc1)Nc1ccccc1	-12%	i
CCCSc1nc(O)c(C(c2ccc(OC)c(O)c2)c2c(O)nc(SCCC)n(C)c2=O)c(=O)n1C	-17%	-16%
CCOC(=O)N1CCN(C(=O)Cc2c(C(=O)O)n(C)c3ccccc23)CC1	1%	-14%
CCOC(=O)Cn1c(=O)cnc2ccccc21	47%[activator]	31%[activator]
Cn1c(SCC(=O)CC(=O)Nc2ccccc2)nnc1-c1ccc(O)cc1	0%	-7%
CCn1cc(C(=O)OCC(=O)Nc2ccccc2OC(F)F)c(=O)c2ccc(C)nc21	7%	-8%
COc1cccc(C(=O)NNC(=O)C(=O)Nc2ccc(OC)cc2OC)c1	6%	u
O=C(NCCS(=O)(=O)NC1CCCC1)c1ccccc1	-2%	-11%
Cc1cc2c(n1-c1ccc(C(=O)NCCc3ccccc3)cc1)CCC(C)C2 (stereo not drawn)	3%	-11%
CC(C)C[C@H]1CNC(=S)N1CC1CCCN1C[C@H](CC(C)C)N1C[C@H](Cc2ccccc2)N(CC2CCCCCC2)C1=S (stereo partly drawn)	-10%	0%
CC(O)(C#CCN1CCCC1)c1ccccc1 (stereo not drawn)	0%	i
CC(C)(C)C(=O)NC(=O)Nc1ccccc1C(F)(F)F	-13%	-19%
O=C(NCCN1C(=O)S/C(=C\c2ccc(Cl)cc2Cl)C1=O)C1=COCCO1	u	-24%
CCCCN(Cc1ccccc1)S(=O)(=O)c1cc(Br)cc2c1N(C(C)=O)CC2	-20%	-2%
Cc1cccc(C)c1OCC(=O)Nc1c(C(=O)c2ccc(Br)cc2)oc2ccccc12	-5%	-9%
C[C@H](CO)N1C[C@H](C)[C@@H](CN(C)S(=O)(=O)c2ccccc2)Oc2c(NC(=O)NC3CCCCC3)cccc2C1=O	u	i
C=CCNC(=O)c1c(C(F)(F)F)nn(C)c1Cl	5%	-13%
CCN(CC)S(=O)(=O)c1ccc(C(=O)NCCCN=C2NS(=O)(=O)c3ccccc32)cc1	-4%	-4%
Cc1ccc(S(=O)(=O)NN=CC2(c3ccccc3)CC2)cc1	-15%	i
Cc1cc2cc(CNC(=S)Nc3ccc(OC(F)F)cc3)ccc2[nH]1	1%	6%
COc1ccc(NC(=O)c2cc(-c3ccco3)on2)cc1OC	-9%	-7%
COC(=O)[C@@H]1CCCN1Cc1ccc2c(c1)CN(Cc1cc(OC)c3c(c1)OCO3)CCO2	-8%	-9%
CCOc1ccccc1CNC(=O)CCC(=O)N1CCSc2ccccc21	-14%	-11%
O=C(O)c1ccccc1Sc1ncnc2sccc12	8%	i
COC(=O)C1=C(C(=O)c2ccccc2)C(c2cccs2)n2nnnc2N1 (stereo not drawn)	-15%	i
COCCNC(=O)CSc1nc2cc(OC)c(OC)cc2c(=O)n1CCc1ccc(S(N)(=O)=O)cc1	-4%	i
COC(=O)Cc1c(C)c2ccc(O)c(CNCc3ccc(OC)c(OC)c3)c2oc1=O	-9%	-26%
CSc1cc(CS(=O)(=O)c2ccccc2)nc(-c2ccccc2)n1	-5%	-15%
Cc1cccc(C)c1NCc1nnc(SCC(=O)Nc2nc(-c3ccccc3)cs2)n1-c1ccccc1	-6%	-13%
COc1ccc(C(=O)N/C(=C\c2cn(C)c3ccccc23)C(=O)NCCCn2ccnc2)cc1OC	-11%	-8%
O=C(Nc1ccc2c(c1)OCCO2)c1ccc(Cl)c(S(=O)(=O)N2CCOCC2)c1	-18%	-9%
CN(C)c1ccc(NC(=O)CSc2nc3ccccc3c(=O)n2CC2CCCO2)cc1 (stereo not drawn)	-6%	-5%
CC(C)(O[C@@H]1O[C@H](CO)[C@@H](O)[C@H](O)[C@H]1O)[C@@H]1CC=C(C(=O)O)CC1	-2%	-13%
Cc1ccc(S(=O)(=O)NC2=NCN(CC(=O)O)CN2)cc1	14%	0%
COc1ccc([C@H]2N[C@]3(CCCN(Cc4ccc(Br)cc4)C3=O)[C@H]3C(=O)N(C)C(=O)[C@@H]23)cc1	-10%	-14%
Cc1nnc(NCCO)c2ccccc12	-17%	-3%
CS(=O)(=O)N(Cc1ccc(C(=O)Nc2ccccc2Sc2ccccc2)cc1)c1ccccc1	-20%	-15%
CC(C)Oc1cc(F)ccc1-c1cc(C(=O)NCCCn2ccnc2)[nH]n1	-5%	i
COc1ccc(-c2nn(C)c(=O)c3ccccc23)cc1CNC(=O)C1CCCCC1	-20%	-16%
CCn1nnc(-c2ccccc2NC(=O)c2cc(OC)c(OC)c(OC)c2)n1	-19%	-24%
CCOc1ccc2cc(S(=O)(=O)N3CCOCC3)ccc2c1	-12%	-17%
Brc1ccc(CSc2nnc3ccccn23)cc1	-18%	-15%
O=C(CCS(=O)(=O)c1ccccc1)OCC(=O)N1CCN(S(=O)(=O)c2ccc(Cl)cc2)CC1	-16%	-23%
Cc1ccc(C(=O)N/C(=C/c2ccc(N(C)C)cc2)C(=O)NCC2CCCO2)cc1 (stereo not drawn)	-9%	-15%
CCOC(=O)C1C2C=CC3(CN(Cc4ccco4)C(=O)C13)O2 (stereo not drawn)	4%	6%
COc1ccc(NC(=O)CC2C(=O)N(c3ccc(F)cc3)C(=O)N2CCc2sccc2C)cc1 (stereo not drawn)	-12%	-14%
COc1ccc(OCC(=O)Nc2ccc(NC(=O)c3cccs3)cc2)cc1	5%	-9%
CC(=O)Nc1ccc(S(=O)(=O)Nc2nccs2)cc1	-11%	i
O=c1nccc(SCc2ccc(Cl)cc2Cl)[nH]1	-22%	-5%
Cc1ccccc1NC(=O)Cn1c(=O)n(Cc2ccco2)c(=O)c2cccnc21	10%	-7%
C[C@@H]1C(=O)O[C@@H]2CC34[C@H]5C[C@@H](C(C)(C)C)C36[C@H](OC(=O)[C@@H]6O)OC4(C(=O)O5)[C@@]12O (stereo partly drawn)	-8%	i
Cc1nccn1S(=O)(=O)c1cc([N+](=O)[O-])ccc1Cl	-17%	-8%
Cc1cccc(C)c1NC(=O)C(c1ccnc2ccccc12)n1c(=O)c(-c2ccccc2)nc2ccccc21 (stereo not drawn)	-28%	u
COc1ccc(/C(N)=N/OC(=O)CCCc2ccccc2)cc1OC	-9%	-24%
Cc1ccc(N(C(=O)Cn2nnc(-c3ccc(F)cc3)n2)C(C(=O)NC(C)(C)C)c2ccncc2)cc1 (stereo not drawn)	-13%	i
Cc1noc(C)c1CSCC(=O)Nc1nnc(CC(C)C)s1	-9%	-12%
CC(=O)C1=C(O)C(=O)N(c2cccc(C(=O)O)c2)C1c1ccccc1F (stereo not drawn)	-11%	-9%

Later entries
SMILES	VACV Venus inh	VACV mCherry inh
O=C(CSc1n[nH]c(-c2ccccc2Cl)n1)N1CCN(c2ccc(F)cc2)CC1	-14%	i
COc1ccc(NC(=O)[C@@H](NC(=O)c2ccccc2F)C(C)C)cc1S(=O)(=O)N1CCOCC1	-14%	-19%
Cc1cccc(OCC(=O)NCC(=O)n2nc(C)cc2C)c1	-14%	-17%
CCC(=O)c1ccc(O)c(OC)c1	-10%	-4%
Cc1ccc(C(=O)NC2CC3CCCC(C2)N3Cc2ccccc2)cc1 (stereo not drawn)	-10%	i
CCCc1nc2ccc(Br)cn2c1Cc1ccccc1OC	-23%	-29%
CCCc1cc(=O)[nH]c(Nc2ccc(Cl)cc2)n1	-27%	u
COc1ccccc1N1CCN(C(=O)/C=C/c2ccco2)CC1	-10%	i
CC12CN(NC(=O)c3ccc(Cl)cc3)C3(C#N)CC1CCC23C (stereo not drawn)	-19%	-27%
COc1ccc(CCNC(=O)Nc2ccc3c(c2)c(=O)n(C)n3CC=C(C)C)cc1OC	-3%	-10%
Cc1ccc([N+](=O)[O-])c(OCCCNCC(C)O)c1 (stereo not drawn)	18%	-6%
CCCCn1c(N)c(N(Cc2ccccc2OC)C(=O)c2cc(=O)[nH]c3ccccc23)c(=O)[nH]c1=O	-7%	-8%
CCN(CC)CCOC(=O)c1ccc(NC(=O)c2cc3c(=O)n(CC)c4ccccc4c3s2)cc1	-8%	-8%
CCCN(CCC)c1nc(-c2ccccc2F)nc2ccccc12	-3%	-13%
COc1cccc(OCCOCCOc2ccc(C)cc2[N+](=O)[O-])c1	-7%	i
CN(C)CCN(C(=O)c1cccc(Cl)c1)c1nc2c(Cl)cccc2s1	-18%	-18%
C/C(CCC12CC3CC(CC(C3)C1)C2)=N\NC(N)=S	u	11µM*
COc1ccccc1NC(=S)N1CCC(NC(=O)NC23CC4CC(CC(C4)C2)C3)CC1	-29%	u
O=C(Nc1cccc(F)c1)c1ccc(S(=O)(=O)N2CCOCC2)cc1	-18%	-8%
CN(C(=O)Cc1ccc(Cl)c(Cl)c1)C(CN1CCCC1)c1cccc(N=C=S)c1 (stereo not drawn)	u	u
O=C(COc1ccc(S(=O)(=O)N2CCCC2)cc1)NCC1CCCO1 (stereo not drawn)	3%	i
COc1cccc(/C=C/C(=O)OCC(=O)Nc2nnc(-c3ccccc3)o2)c1OC	0%	-21%
CC1CC(C)CN(C(=O)c2ccc3ccccc3c2)C1 (stereo not drawn)	-15%	-2%
CC(=O)c1cc2c(cc1N/C(=N/S(=O)(=O)c1ccccc1)c1ccc(Cl)cc1)OCO2	-6%&-26%	-18%&-21%
COc1ccc(C2/C=C\CN3CCC[C@H]3C(=O)N2Cc2ccc(F)cc2)cc1 (stereo partly drawn)	-14%	-3%
CCCCCCSc1cc(C)nc2ncnn12	-8%	i
CCc1cc(-c2n[nH]c(C)c2-c2nc3ccccc3n2C)c(O)cc1O	-26%	-28%
CCOC(=O)c1cccc(C(=O)Oc2ccccc2)n1	-6%	-14%
O=C(COC(=O)c1ccc[nH]c1=O)Nc1cc(S(=O)(=O)N2CCCCC2)ccc1Cl	-12%	-13%
COc1ccc(NC(=O)CSc2ncn[nH]2)c([N+](=O)[O-])c1	8%	-12%
O=C1c2cccnc2C(=O)N1c1nc(-c2ccccc2)cs1	-13%	-24%
NC(=O)c1c(NC(=O)c2c(F)cccc2F)sc2c1CCN(Cc1ccccc1)C2	u	u
Cc1nc(C(=O)NNC(=O)Nc2ccccc2)cs1	-13%	i
COc1ccccc1CN1C[C@@H]2C[C@@H](c3cccc(O)c3)N3CCC[C@@]23C1=O	-7%	-14%
COCCNC(=O)c1ccc2c(c1)S(=O)(=O)c1cc(Cl)ccc1C2=O	-2%	-28%
Cc1ccc(CNc2nc(CN3CCNC(=O)C3)nc3ccccc23)o1	-13%	-16%
O=C1CCC2CN3CCc4c([nH]c5ccccc45)C3CC2C1 (stereo not drawn)	8%	u
CCn1nc(C)c(CCN(C)C(=O)Nc2cc(OC)c(OC)c(OC)c2)c1C	1%	-13%
COC(=O)c1cc(=O)[nH]c(SCc2cccc(C)c2)n1	-2%	-13%
Cn1c(=O)cc(SCC(=O)N2CCN(C3CCCCC3)CC2)c2ccccc21	-12%	u
Cc1nonc1C1CCCN1C(=O)c1cc(COc2cccc(C(F)(F)F)c2)on1 (stereo not drawn)	0%[7.34 µM]	i[7.34 µM]
O=C(C(Cc1ccccc1)n1cccc1)N1CCc2ccccc21 (stereo not drawn)	-3%	i

Arranged by SMILES length (low to high): part of the list above.
SMILES	VACV Venus inh	VACV mCherry inh
CCCCCCSc1cc(C)nc2ncnn12	-8%	i
Cc1nc(C(=O)NNC(=O)Nc2ccccc2)cs1	-13%	i
CCOC(=O)c1cccc(C(=O)Oc2ccccc2)n1	-6%	-14%
CC1CC(C)CN(C(=O)c2ccc3ccccc3c2)C1 (stereo not drawn)	-15%	-2%
O=C(C(Cc1ccccc1)n1cccc1)N1CCc2ccccc21 (stereo not drawn)	-3%	i
O=C1CCC2CN3CCc4c([nH]c5ccccc45)C3CC2C1 (stereo not drawn)	8%	u
Cc1ccc(CNc2nc(CN3CCNC(=O)C3)nc3ccccc23)o1	-13%	-16%
O=C(COc1ccc(S(=O)(=O)N2CCCC2)cc1)NCC1CCCO1 (stereo not drawn)	3%	i
COc1ccc(NC(=O)CSc2ncn[nH]2)c([N+](=O)[O-])c1	8%	-12%
CCc1cc(-c2n[nH]c(C)c2-c2nc3ccccc3n2C)c(O)cc1O	-26%	-28%
Cn1c(=O)cc(SCC(=O)N2CCN(C3CCCCC3)CC2)c2ccccc21	-12%	u
CCn1nc(C)c(CCN(C)C(=O)Nc2cc(OC)c(OC)c(OC)c2)c1C	1%	-13%
Cc1nonc1C1CCCN1C(=O)c1cc(COc2cccc(C(F)(F)F)c2)on1 (stereo not drawn)	0%[7.34 µM]	i[7.34 µM]
NC(=O)c1c(NC(=O)c2c(F)cccc2F)sc2c1CCN(Cc1ccccc1)C2	u	u
O=C(COC(=O)c1ccc[nH]c1=O)Nc1cc(S(=O)(=O)N2CCCCC2)ccc1Cl	-12%	-13%
COc1ccccc1CN1C[C@@H]2C[C@@H](c3cccc(O)c3)N3CCC[C@@]23C1=O	-7%	-14%
CC(=O)c1cc2c(cc1N/C(=N/S(=O)(=O)c1ccccc1)c1ccc(Cl)cc1)OCO2	-6%&-26%	-18%&-21%
